Cruzain inh Det: inhibitors of Trypanosoma cruzi cruzain with detergent. P25779. purified cruzain, Z-FR-AMC fluorescence, 0.01% Triton. Potency, µM, without a hit: max response, negative = inhibition, most hits filed as inhibitors. actives 0.43% (n = 200,000). AID 1478; active means well fitted curve in the direction sought with a large enough effect; inconclusive means small, poorly fitted or top-dose-only effect, or another doubt; inactive means no such curve, though single readings can be large; an effect the other way counts as inactive or inconclusive;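 further: plate controls were neutral wells for no effect and buffer without enzyme for full effect; nearly all actives have a fitted effect of over 40% in size; top concentration of the series not given in the record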
Target sequence (P25779 123-467 limits assumed): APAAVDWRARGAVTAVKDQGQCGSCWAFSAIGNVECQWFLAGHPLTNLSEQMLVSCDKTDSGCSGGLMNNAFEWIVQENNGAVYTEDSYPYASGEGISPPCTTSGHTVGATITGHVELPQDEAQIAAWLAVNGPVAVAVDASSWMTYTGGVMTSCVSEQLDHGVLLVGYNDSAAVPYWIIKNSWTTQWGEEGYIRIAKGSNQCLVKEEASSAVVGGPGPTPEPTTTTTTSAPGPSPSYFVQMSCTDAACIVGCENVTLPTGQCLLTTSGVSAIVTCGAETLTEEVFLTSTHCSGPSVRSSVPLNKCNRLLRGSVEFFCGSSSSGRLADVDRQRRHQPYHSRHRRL
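15 min RT preincubation of 1.5 nM cruzain with compound, then 2 uM Z-FR-AMC added; kinetic AMC fluorescence, 60 s delta. Triton X-100 0.01%, pH 5.5.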
NS1 function inh: inhibitors of influenza NS1 protein function | S. cerevisiae slowed by influenza A NS1, growth recovery by OD600 | Potency, µM (series often up to 46.1 µM), for the others: top-dose activity, positive = more growth | actives 0.4% (n = 270,000) | AID 2326; further: actives are rising curves; nearly all actives have a fitted effect of over 50% in size
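In this qHTS, NS1 from influenza A is expressed in budding yeast, where it slows growth. Cells are switched from glucose to 2% galactose medium (pH 6.0, -URA), treated with compound, and growth recovery is read at OD600.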
RE007 growth inh: less growth of the S. pombe RE007 Vpr strain; S. pombe RE007 Vpr strain, BacTiter-Glo ATP luminescence, 24 h; control for the full effect not named in the record; Potency, µM (doses to about 92.2 µM), without a hit: at the highest dose activity change, negative = less growth; actives 0.21% (n = 360,000); AID 651644; active = well fitted falling curve with a large enough effect; inconclusive = small, poorly fitted or top-dose-only effect; inactive = no such curve, though single readings can be large or run the other way;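 further: on the % scale 0 is the no-effect control and ±100 the full control effect; nearly all actives have a fitted effect of over 50% in size; the assay follows cell death caused by Vpr and the record does not say whether a fall means rescue or toxicity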
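Fission yeast strain RE007, carrying one chromosomally integrated HIV-1 vpr copy, was seeded at OD 0.01 in PMG+AL medium with 23 nL pinned compound. After 24 h at 30 °C and 99% humidity, viability was read by BacTiter-Glo luminescence.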
Cruzain inh noDet: inhibitors of Trypanosoma cruzi cruzain without detergent | purified cruzain, Z-FR-AMC fluorescence, no detergent | AID 1476 | actives 2.3% (n = 200,000) | Potency, µM, for the others: max response, negative = inhibition, most hits filed as inhibitors | P25779; active means well fitted curve in the direction sought with a large enough effect; inconclusive means small, poorly fitted or top-dose-only effect, or another doubt; inactive means no such curve, though single readings can be large; an effect the other way counts as inactive or inconclusive;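 further: plate controls were enzyme without inhibitor for no effect and buffer without enzyme for full effect; nearly all actives have a fitted effect of over 40% in size; top concentration of the series not given in the record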
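Purified cruzain at 1.5 nM, pre-incubated 15 min with compound at room temperature in 100 mM sodium acetate pH 5.5, 5 mM DTT, 0.00005% Triton X-100. Reaction started with 2 uM Z-FR-AMC; AMC fluorescence increase over 60 s gives rate.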
LASV entry inh: Lassa virus entry inhibition. Lassa virus pseudotype entry inhibition, cell reporter; control for the full effect not named in the record. Potency, µM (titrated, usually from 37.9 µM), for the others: at the top dose activity change, negative = inhibition, most hits filed as inhibitors. actives 1.2% (n = 300,000). AID 540256; active means well fitted inhibition curve with a large enough effect; inconclusive means small, poorly fitted or top-dose-only effect, or effect the other way; inactive means flat fitted curve, though single readings scatter; tested in HEK293 cells; further: on the % scale 0 is the no-effect control and ±100 the full control effect; nearly all actives have a fitted effect of over 50% in size; luciferase read-out
SARS PLpro yeast: blocks SARS-CoV papain-like protease in a yeast assay; S. cerevisiae expressing SARS-CoV PLpro, growth rescue; control for the full effect not named in the record; Potency, µM (top dose mostly 32.9 µM), for the others: top-dose activity, positive = growth rescue; actives 0.19% (n = 330,000); further: 0% is about no effect; nearly all actives have a fitted effect of over 55% in size; growth read by luminescence after 48 h
2A StopGo: lowers the luciferase signal of an FMDV 2A StopGo reporter | human cells with a luciferase reporter of 2A StopGo recoding; control for the full effect not named in the record | Potency, µM (series often up to 57.9 µM), for the others: at the top dose signal change, negative = less light | actives 1.2% (n = 410,000); active = well fitted falling curve with a large enough effect; inconclusive = small, poorly fitted or top-dose-only effect; inactive = no such curve, though single readings can be large or run the other way; tested in HEK293T cells; further: on the % scale 0 is the no-effect control and ±100 the full control effect; nearly all actives have a fitted effect of over 45% in size; luciferase light after 4 h
Marburg entry inh: inhibitors of Marburg virus binding or cell entry. Marburg virus pseudotyped entry inhibition, cell reporter; control for the full effect not named in the record; about a third of the inactives were read at about 46 µM. Potency, µM (top dose mostly 37.8 µM), for the others: at the top dose activity change, negative = inhibition, usual class: inhibitors. AID 540276. actives 1.8% (n = 300,000); active = well fitted inhibition curve with a large enough effect; inconclusive = small, poorly fitted or top-dose-only effect, or effect the other way; inactive = flat fitted curve, though single readings scatter; tested in HEK293 cells; about a fifth of its hits are not listed in these tables; further: on the % scale 0 is the no-effect control and ±100 the full control effect; luciferase read-out
* = called active by the depositor; ? = inconclusive; / = no result given; & = joins results of further samples; [ ] = remark or other dose. Unless noted, the call rests on the fitted dose curve; in most records, active means well fitted rising curve with a large enough effect; inconclusive means small, poorly fitted or top-dose-only effect; inactive means no such curve, though single readings can be large or run the other way. Potency means the concentration at half of the fitted maximal effect.

Order of results – Cruzain inh noDet | 2A StopGo | NS1 function inh | LASV entry inh | SARS PLpro yeast | Cruzain inh Det | RE007 growth inh | Marburg entry inh
C[C@@H](C(O)c1ccccc1)N(C)C(=O)CCc1ccccc1 (stereo partly drawn)
  / | 11% | 18% | / | -5% | / | 12% | /
Cc1ccc(NCc2ccccc2OCc2ccccc2F)cc1
  -6% | -19% | -9% | -27% | -18% | -2.4% | -22% | ?
CC(C)(C)c1ccc(C(=O)NCC(=O)N2CCCC2)cc1
  / | 31%[activator] | -1% | 3% | 3% | / | 1% | 21%[46.1 µM]
COc1ccc(C(=O)N2CCc3[nH]nc(-c4ccccc4)c3C2)cc1
  / | 2% | 4% | -26%[46.1 µM] | -4% | / | -12% | 9%[46.1 µM]
COc1ccc(-n2nc(C(=O)NCC(=O)N(C)Cc3ccccc3)c3ccccc3c2=O)c(OC)c1
  / | -14% | -3% | 0%[46.1 µM] | 1% | / | -14% | 1%[46.1 µM]
COC(=O)CC1Oc2ccccc2N(Cc2ccc(C)cc2)C1=O (stereo not drawn)
  -22% | -24% | -12% | -10% | -24% | -11% | -12% | -13%
COC(C[C@H]1O[C@@H]1[C@H](O)COCc1ccccc1)OC
  / | -11% | 1% | / | 5% | / | 45% | /
O=C(Cn1cnc2ccccc2c1=O)Nc1nc2ccccc2s1
  / | 43%[activator] | 5% | 11% | 0% | / | 4% | 3%[46.1 µM]
CCc1ccc(C(C)NC(=O)/C(C#N)=C\c2cn[nH]c2-c2ccccc2)cc1 (stereo not drawn)
  -11% | ? | 12% | ? | / | -1.1% | -6% | ?
CCCCCOc1ccc(C2c3c(oc4ccccc4c3=O)C(=O)N2c2nc(C)c(C)s2)cc1OCC (stereo not drawn)
  13% | -20% | / | -8%[46.1 µM] | / | -1.1% | / | ?
COc1ccc(NC(=O)COC(=O)c2cc([N+](=O)[O-])ccc2N2CCOCC2)cc1
  / | ? | -11% | -8% | -1% | / | -6% | /
O=c1[nH]c(=O)n(C(c2ccccc2)c2ccccc2)cc1Br
  / | -7% | / | -8% | -1% | / | 0% | 18%
CC1CCCN(c2nc3nonc3nc2N2CCCC(C)C2)C1 (stereo not drawn)
  -8% | 0% | -2% | -4% | -25% | -8.9% | -10% | -17%
Cc1nnsc1C(=O)NC1CCCc2c1cnn2-c1cc(F)cc(F)c1 (stereo not drawn)
  / | -15% | -4% | -15% | -2% | / | 0% | -15%
Cc1ccc(S(=O)(=O)N(c2cccc(C(F)(F)F)c2)C2C=CS(=O)(=O)C2)cc1 (stereo not drawn)
  9% | / | 7% | -2% | 5% | -2.4% | 23% | -23%
O=c1[nH]c2ccccc2c2nc(-c3cccc(S(=O)(=O)N4CCCC4)c3)nn12
  / | -10% | -45% | 2% | -2% | / | -24% | -21%[46.1 µM]
Cc1ccc(/C=C/C(=O)OCC(=O)NCc2cccs2)o1
  / | 22% | / | -26%[46.1 µM] | -13% | / | -8% | 18%[46.1 µM]
CCC(C)NS(=O)(=O)c1ccc(OCC(=O)NCc2ccco2)cc1 (stereo not drawn)
  -4% | 46%[activator] | -7% | 1% | / | 6.0% | 17% | -2%
C/C(=N\OC(=O)c1ccc(F)cc1)c1ccc(F)c(F)c1
  / | 0% | -2% | / | 1% | / | 11% | /
Cc1nc(N2CCN(C(=O)c3ccco3)CC2)c2c3c(sc2n1)CCCC3
  ? | / | -26% | -56% | -64% | -13% | 11% | ?
CC(NC(=O)c1ccc2c(c1)sc1nc(-c3ccc(F)cc3)cn12)C12CC3CC(CC(C3)C1)C2 (stereo not drawn)
  0% | -5% | / | 6%[46.1 µM] | / | -0.5% | / | /
COc1ccc(CCNC(=O)c2ccc3c(c2)N(Cc2ccc(F)cc2)CCS3)c(OC)c1
  / | -16% | ? | -30%[46.1 µM] | -12% | / | -10% | 7.9µM*
COC(=O)[C@H](CCSC)NC(=O)N1CCN(Cc2ccccc2)CC1
  9% | 9% | -7% | 6% | -12% | 2.5% | 0% | -4%
CNC(=O)C(=O)Nc1ccc2c(c1)N(S(=O)(=O)c1cccs1)CCC2
  / | -4% | / | -21% | -3% | / | -7% | -23%
CCC(=O)N1c2ccc(S(=O)(=O)N3CCN(c4cc(C)ccc4C)CC3)cc2CC1C (stereo not drawn)
  / | -15% | 15% | ? | -3% | / | 0% | ?
S=C(NCc1ccc(Cl)cc1Cl)Nc1ccccc1
  -14% | 36%[activator] | -48% | ? | -62% | -8.5% | 7% | -26%
CSCCC(NC(=O)c1ccccc1Cl)C(=O)NCCOc1ccccc1 (stereo not drawn)
  / | 14% | / | -1% | 4% | / | -9% | -8%
CN(c1ccccc1)S(=O)(=O)c1cccc(NC(=O)c2cc(=O)c3ccccc3o2)c1
  / | 32µM* | / | ? | -1% | / | 4% | 13µM*
CCOC(=O)CCC(=O)O[C@H]1[C@H](O[C@@H]2[C@@H](C)[C@H](O[C@H]3C[C@@](C)(OC)[C@@H](O)[C@H](C)O3)[C@@H](C)C(=O)O[C@H](CC)[C@@](C)(O)[C@H](O)[C@@H](C)C(=O)[C@H](C)C[C@@]2(C)O)O[C@H](C)C[C@@H]1N(C)C
  15% | -26% | -18% | 1% | -6% | 2.6% | -6% | 1%&3%
CCc1ccc(N(C(=O)Cc2cccs2)C(C(=O)NC2CCCCC2)c2cn(C)nc2C)cc1 (stereo not drawn)
  ? | 0% | ? | 0% | -2% | 1.2% | -21%[3.69 µM] | -14%
Cc1cc(C)c(NC(=O)Cn2c(=O)n(CCC(C)C)c(=O)c3cccnc32)c(C)c1
  -10% | -24% | / | / | / | 1.1% | / | 14%[46.1 µM]
CCc1nnc(NC(=O)CSc2nccn2Cc2ccc(C)cc2)s1
  -6% | -12% | / | ? | / | -1.2% | / | /
CCOC(=O)Nc1cccnc1Sc1ccc(Cl)cc1
  / | -3% | / | 20%[46.1 µM] | / | / | -9% | -12%[46.1 µM]
COC(=O)c1sccc1NC(=O)c1c(Cl)cccc1Cl
  / | -16% | 12% | / | -7% | / | 4% | /
Fc1ccc2c(c1)C(c1ccncc1)=NNC(c1cccnc1)=N2
  6% | 23% | ? | -25% | 3% | 0.3% | 2%[3.69 µM] | ?
CCn1nnc2cc(C(=O)Nc3ccc(Cl)cc3C)ccc21
  -7% | 4% | / | 6%[46.1 µM] | / | 6.9% | / | /
COc1ccc(S(=O)(=O)Nc2ccc3c(c2)n(C)c(=O)n3C)cc1F
  / | -28% | 4% | -24%[46.1 µM] | 2% | / | 15% | -5%[46.1 µM]
O=C(Cn1nc(C(F)(F)F)c2c1CCCC2)Nc1ccc(F)c(Cl)c1
  -6% | ? | / | -17%[46.1 µM] | / | -11% | / | ?
CC(C)[C@H](NC(=O)[C@@H]1CSC2c3ccccc3C(=O)N21)C(=O)NCC1CCCO1 (stereo partly drawn)
  / | -2% | 5% | / | 1% | / | 1% | /
CC1CCN(CCc2nc3cc(NC(=O)C(C)C)ccc3n2C)CC1
  / | -6% | 6% | / | -3% | / | -15% | /
CCc1cnc2c(c1SCC(=O)Nc1ccc(OC)c(OC)c1)c(=O)n(C)c(=O)n2C
  -18% | -11% | / | 0%[46.1 µM] | / | 0.2% | / | /
COc1ccc(-n2cnnc2SCCC#N)cc1
  -18% | 20% | ? | 4% | 11% | 2.2% | 7% | 1%
O=C(NCC1COc2ccccc2O1)c1cccc(S(=O)(=O)N2CCN(c3ccccc3)CC2)c1 (stereo not drawn)
  / | -22% | / | -20% | -1% | / | -10% | ?
Cc1ccccc1NC(=O)Cc1c(O)c2ccccc2[nH]c1=O
  2% | / | 9% | 21% | 3% | 0.3% | -10% | 15%
C=CCC1(CC=C)CCCN1C(=O)C1CCC(=O)N(CCc2ccccc2)C1 (stereo not drawn)
  / | 48%[activator] | -2% | ? | -4% | / | -10% | ?
CCOc1ccc(S(=O)(=O)Nc2ccc(S(=O)(=O)N3CCCCC3)cc2)cc1
  -5% | 51%[activator] | 12% | 14% | -1% | -7.7% | -11%[3.69 µM] | -2%
Cc1csc(=O)n1CC(=O)OCc1nnc(-c2ccccc2)o1
  / | 5% | / | 23% | 4% | / | 7% | 8%
CCOC(=O)c1cccc(NC(=O)CCc2nnc3ccc(N4CCOCC4)nn23)c1
  / | 20% | -3% | -7%[46.1 µM] | -2% | / | 6% | -28%[46.1 µM]
Cc1cn(C)c(CC(=O)N2CCN(c3cccc(Cl)c3)CC2)c1C(=O)O
  -9% | -17% | / | 2%[46.1 µM] | / | -1.5% | / | /
COc1ccc(Oc2cccc(Cl)c2CNC(=O)CSCC(=O)O)cc1
  / | -20% | 3% | 0%[46.1 µM] | -1% | / | -6% | -19%[46.1 µM]
Cc1cccc(-c2noc(CN(C(=O)COc3ccc(C(C)C)cc3)C(C)C)n2)c1
  5% | -15% | / | -5%[46.1 µM] | / | -7.3% | / | -22%[46.1 µM]
CCc1nnc(NC(=O)CSc2nnc(-c3ccco3)n2CCOC)s1
  / | -19% | -3% | -12% | -1% | / | -6% | 15%[46.1 µM]
COCCn1c(SCC(=O)/C=C2\N(C)c3ccccc3C2(C)C)nnc1-c1ccncc1
  -2% | ? | 1% | ? | 3% | -6.7% | 2% | -38%
Cc1cc2cc(CN(Cc3ccco3)C(=O)C3CCCCC3)c(=O)[nH]c2cc1C
  -2% | -28% | -1% | 13% | 11% | 3.2% | -2% | ?
Nc1nonc1-c1nc2ccccc2n1CC(=O)N/N=C/c1ccc(-c2ccccc2C(=O)O)o1
  / | 5% | / | -2% | 1% | / | 20% | ?

Screening data as filed in PubChem.

Rows were taken by chance; 4.8% or so of the library scored in one or more.
